Calb FLC: C. albicans growth inhibition with fluconazole, primary screen, CaCi-2 strain, Alamar Blue fluorescence. C. albicans CaCi-2 (fluconazole-resistant clinical isolate) + fluconazole, 48 h. growth inhibition, % (concentration not given with the values). hit rate 0.57% among 300,000;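 active means most replicates above 75%; inconclusive means exactly half above 75%; inactive means most below 75%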;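 further: all wells also contain fluconazole at 8 µg/ml as a sub-toxic cotreatment; 0% = median of DMSO wells and 100% = median of geldanamycin control wells; wells of about 8 µL received 7.5 nL stock; the first replicate is given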
Beta cell apopt: inhibitors of cytokine-induced beta cell apoptosis, primary screen, luminescence | INS-1E cytokine-induced death, ATP luminescence, 48 h; percent of positive-control rescue, neutral wells zero | protection from apoptosis, % (test concentration not listed) | hit rate 0.8% among 300,000;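 active means all replicates at 75% or more, or half of them and the mean; inconclusive means half reach 75% but not the mean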;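 further: 0% = cytokine-treated negative control wells and 100% = positive control rescue; higher means more ATP so stronger rescue from cytokine killing; wells of about 40 µL received 100 nL stock; the first replicate is given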
MLL AF4-AF9 inh: inhibitors of AF4 peptide binding to AF9, primary screen, biochemical, AlphaScreen, biotin-AF4 peptide, FLAG-AF9, single point; Protein AF-9 (Homo sapiens), P42568; inhibition, % at 10 µM; hit rate 0.47% among 350,000; AID 651704, 2012;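 active means every replicate reaching a set inhibition limit, whatever the replicate mean, cut at about 25% in these data; inconclusive means mean inhibition reaches that limit but some replicates miss it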;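 further: 0% = plate neutral control median and 100% = total signal loss; the record names both 10 and 1 µM as test concentration; the first replicate is given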
Target sequence (P42568 whole entry, looked up): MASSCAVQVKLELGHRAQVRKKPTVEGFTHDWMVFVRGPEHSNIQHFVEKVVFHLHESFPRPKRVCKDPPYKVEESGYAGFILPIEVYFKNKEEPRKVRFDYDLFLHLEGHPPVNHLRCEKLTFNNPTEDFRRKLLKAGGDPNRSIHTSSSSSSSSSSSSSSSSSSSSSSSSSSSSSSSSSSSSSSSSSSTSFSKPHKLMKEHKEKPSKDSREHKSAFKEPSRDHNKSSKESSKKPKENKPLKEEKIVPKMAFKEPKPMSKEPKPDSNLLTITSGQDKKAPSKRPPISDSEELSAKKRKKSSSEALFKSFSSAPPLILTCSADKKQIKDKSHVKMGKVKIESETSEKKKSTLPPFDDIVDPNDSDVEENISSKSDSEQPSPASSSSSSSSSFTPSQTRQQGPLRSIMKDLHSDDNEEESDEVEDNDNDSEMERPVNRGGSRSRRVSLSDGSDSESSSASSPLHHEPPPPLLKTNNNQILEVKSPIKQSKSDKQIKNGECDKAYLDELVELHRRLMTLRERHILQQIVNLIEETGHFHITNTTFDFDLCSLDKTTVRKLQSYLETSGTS
RanGTP-Impb inh: inhibitors of RanGTP-importin-beta interaction, primary screen, biochemical, FRET, CFP-Ran, YFP-importin-beta, homogeneous; cell-free CFP-Ran/YFP-importin-beta FRET ratio; inhibition, % (no concentration beside the values); Ran GTPase (GTP-bound) - importin-beta complex; hit rate 1.1% among 300,000; AID 2216, 2009;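 active means most replicates above 15%; inconclusive means exactly half above 15%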;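 further: 0% = DMSO wells and 100% = Ran loaded with GDP instead of GTP; wells of about 40 µL received 100 nL stock; the first replicate is given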
T cruzi inh: inhibitors of intracellular T. cruzi growth, primary screen, luminescence, NIH3T3 host cells; T. cruzi beta-gal in NIH3T3, 90 h; inhibition, % (no concentration beside the values); hit rate 1.4% among 300,000;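 active means mean inhibition across valid replicates above about 55%, limit read from the data; inconclusive means mean below that limit but half or more replicates reach it; inactive means mean below it, under half of replicates reach it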;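 further: signal also drops with host cell toxicity which is not excluded here; 0% = plate median of DMSO wells and 100% = zero luminescence signal; higher percent means less beta-gal luminescence so fewer parasites; stock transfer was 50 nL into about 50 µL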
Vif TR-FRET: inhibitors of Vif binding to APOBEC3G peptide, primary screen, biochemical, TR-FRET, GST-Vif 1-94, biotin-A3G peptide, dose response retest (AID 1117319). one-dose inhibition, %; IC50 in µM for titrated hits. TR-FRET GST-Vif / biotin-A3G peptide binding; higher % means a stronger effect; test concentration not given here; strong numbers were not always called active. hit rate 0.57% among 260,000. Virion infectivity factor (Human immunodeficiency virus type 1 group M subtype B (isolate …;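 active means above the screen mean plus three standard deviations and confirmed in dose response; inconclusive means results disagree or hit not tested in dose response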;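 further: Vif residues 1-94 fused to GST binding biotinylated APOBEC3G peptide 110-148; 0% = full assay without inhibitor and 100% = GST in place of GST-Vif; retest series ran down from 100 µM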
rRNA inh HTS: reduced GFP signal of wild-type E. coli, primary screen, bacterial rRNA inhibitor project, GFP/RFP fluorescence, OD600, single point | E. coli WT GFP vs humanized-ribosome RFP mutants, 24 h; active compounds read low; DMSO median 0, no signal -100 | GFP signal change (wild-type ribosome), % (no concentration beside the values) | hit rate 1.6% among 350,000;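 active means significant combined selectivity score with lowered wild-type GFP, culture density cut under 30%, mutant RFP and density less affected; inactive means any of these conditions unmet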; further: one replicate is shown; some compounds called inactive have numbers as strong as hits
A1 inh: caspase 3/7 activation in MEF A1-2A-BIM cells, primary screen, A1 inhibitor project, cell-based, luminescence, HTS | Caspase-Glo 3/7 luminescence, 3 h; percent of clofoctol response, vehicle zero | caspase activation, % (no concentration beside the values) | hit rate 0.066% among 330,000;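 active means over half of replicate activation scores above 10%, or exactly half above 10 with the replicate mean above 10; inconclusive means replicate mean below 10 yet half the replicates above 10; inactive means over half of replicates below 10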;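 further: wells of about 30 µL received 50 nL stock; many hits fall short of the cut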
rRNA inh HTS OD600: second read-out of rRNA inh HTS, no call of its own (marks repeat the call); OD600 change, %; measured here: OD600 growth;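 optical density of the mix in the first replicate; 0 = DMSO median and -100 = no signal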
rRNA inh HTS RFP: recorded beside rRNA inh HTS, whose call it bears; RFP signal change, %; measured here: RFP humanized mutant strains;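 first replicate; 0 = DMSO median and -100 = no signal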
* marks the source's active call; other numbers are inactive results; ? = inconclusive; nt = not tested or not shown. The list is partial; count on the stated rates, not on these rows.

SMILES | Calb FLC | Beta cell apopt | MLL AF4-AF9 inh | RanGTP-Impb inh | T cruzi inh | Vif TR-FRET | rRNA inh HTS | rRNA inh HTS OD600 | rRNA inh HTS RFP | A1 inh
COc1ccc(C(=O)c2ccc(Cl)cc2)cc1 | -2 | 0 | nt | 0.9 | -9 | 0% | nt | nt | nt | 0.0
Cc1nc(SCC(=O)N(C)C2(C#N)CCCCC2)c2ccccc2n1 | nt | -17 | -5.4 | nt | nt | -6% | nt | nt | nt | 0.2
Cc1ccccc1-c1cc(C(=O)NCc2ccco2)nn1CC1CC(c2cccc([N+](=O)[O-])c2)=NO1 (stereo unspecified) | nt | -3 | 6.8 | nt | nt | nt | 1 | 1 | -9.3 | 0.3
CN(Cc1ccccc1)C(=O)c1ccc(S(=O)(=O)N(C)c2ccccc2)cc1 | nt | 2 | -0.9 | nt | nt | nt | -25 | -59 | -0.3 | -0.7
CCOC(=O)N1CCN(Cc2nnc(-c3ccccc3C)o2)CC1 | -34 | -5 | -1.2 | -3.9 | -6 | nt | 24 | 21 | 4.0 | 0.3
C/C(=N\Nc1nc(-c2ccccc2O)nc2ccccc12)c1ccccc1 | 18 | 17 | 1.2 | -2.4 | 35 | nt | 1 | 5 | -1.1 | 0.0
CNS(=O)(=O)c1cccc(C(=O)OCC(=O)c2ccc(S(=O)(=O)N3CCCCC3)cc2)c1 | 1 | nt | -0.7 | 1.6 | -6 | nt | 13 | 21 | -0.5 | 0.1
O=C(NC1CCCCC1)[C@H](O)[C@@H](O)C(=O)NC1CCCCC1 | nt | -3 | nt | 1.7 | -1 | -3% | nt | nt | nt | -0.6
COc1ccc(C(=O)c2c(NC(C)=O)sc3c2CCN(C(=O)OC(C)(C)C)C3)cc1 | 6 | 1 | 10 | -4.2 | 43 | -1% | -3 | 1 | -3.3 | -0.5
Cc1ccc(S(=O)(=O)Nc2ccccc2C(=O)N2CCCC2)cc1 | 1 | nt | 1.0 | -4.5 | -5 | 18% | 0 | 0 | 0.0 | -0.4
Cc1ccc(Cn2ccsc2=NC(=O)COC(=O)C(C)C)cc1 | -26 | 27 | 0.8 | -0.5 | 9 | nt | -9 | -6 | 0.1 | 0.2
Nc1nc2ccc(NC(=O)c3ccco3)cc2s1 | -13 | -4 | 1.1 | -0.6 | 4 | nt | 3 | 8 | -2.1 | 0.0
COc1ccc2c(c1)cc(C)c1nnc(SCC(=O)N3CCN(C(=O)c4ccco4)CC3)n12 | 2 | -5 | nt | -2.9 | -52 | nt | nt | nt | nt | 0.6
O=C(CCOc1ccccc1)Nc1ccnn1C1CCN(Cc2ccc(O)cc2)CC1 | 1 | -4 | 10 | -1.5 | -2 | -4% | 6 | 8 | 2.2 | -1.1
Cc1c2cnn(CC(=O)NCCN3CCOCC3)c(=O)c2c(C)n1Cc1ccc(F)cc1 | 0 | -5 | 6.5 | 0.2 | -10 | nt | 4 | 2 | -6.1 | nt
c1cnc(-c2noc(CN3CCN(C4C5CC6CC(C5)CC4C6)CC3)n2)cn1 (stereo unspecified) | -14 | -7 | -1.1 | 2.3 | -7 | nt | 9 | 12 | 5.5 | 0.2
CS(=O)(=O)N(CC(=O)Nc1cccc(F)c1)Cc1ccccc1 | 14 | -2 | 2.1 | 5.0 | -11 | 33% | -4 | -3 | -2.7 | 2.3
Cc1ccc(N2C(=O)C(c3c(C)[nH]n(-c4ccccc4)c3=O)(C(F)(F)F)C3=C2CC(C)(C)CC3=O)cc1 (stereo unspecified) | 49 | -11 | nt | -0.8 | -14 | 8% | nt | nt | nt | -0.2
CC1(c2ccc3c(c2)OCCCO3)NC(=O)N(CC(=O)NCCc2ccccc2)C1=O (stereo unspecified) | nt | -7 | 0.4 | nt | nt | 10% | -5 | -11 | 2.0 | -0.5
CC1(C)Cc2c(sc3nc(SCC(=O)N4CCOCC4)nc(N)c23)CO1 | 9 | 6 | nt | 0.3 | 10 | 4% | nt | nt | nt | -0.3
Cc1ccc(N2C(=O)/C(=C/c3cccnc3)SC2=S)cc1 | -1 | -1 | 2.5 | -5.2 | -18 | nt | 19 | -1 | 4.3 | -0.1
CC(Oc1ccccc1)C(=O)NC1C(=O)N2C1SC(C)(C)C2C(=O)O (stereo unspecified) | -20 | 4 | -3.1 | 3.0 | -30 | 22% | 17 | 16 | -1.0 | 0.3
Oc1cc(O)c2c(c1)O[C@H](c1ccc(O)c(O)c1)[C@H](O)C2 | 5 | -10 | nt | -2.8 | -10 | nt | nt | nt | nt | 0.2
C/C(=N\Nc1nc(N2CCOCC2)nc(N2CCOCC2)n1)c1cccs1 | ? | -5 | -0.6 | 1.7 | -1 | 1% | 7 | 7 | 1.8 | 1.0
CCCc1nc2n[nH]c(N)c2c2c1COC(C)(C)C2 | -1 | -13 | nt | -10 | 11 | 5% | nt | nt | nt | 0.3
CC(=O)Oc1cccc(Nc2ncnc3ccccc23)c1 | -19 | 14 | -7.6 | 4.5 | -7 | nt | -1 | 2 | 1.2 | 0.2
CC(C)c1onc(C(=O)Nc2cccc(O)c2)c1[N+](=O)[O-] | 6 | -1 | -2.8 | 0.6 | -10 | 14% | -1 | -2 | -1.1 | -0.1
CN(C(=O)c1ccc(NC(=O)Cc2ccc(NC(=O)C3CCN(C(=O)C4CC4)CC3)cc2)cc1)C1CC1 | nt | 3 | 16 | nt | nt | nt | 14 | 12 | 13 | -0.2
O=C(NC12CC3CC(CC(C3)C1)C2)N1CCN(S(=O)(=O)c2ccc(Cl)cc2)CC1 | 1 | 0 | nt | 0.6 | 23 | 3% | nt | nt | nt | 0.4
COc1ccc(S(=O)(=O)N(CCc2ccccc2)CC(=O)N/N=C/c2ccc3c(c2)OCO3)cc1 | 1 | -7 | nt | -2.5 | 42 | nt | nt | nt | nt | 0.6
COc1ccc(CCC(C)NC2C3CC4CC(C3)CC2C4)cc1 (stereo unspecified) | -52 | nt | nt | 12 | 11 | 7% | nt | nt | nt | nt
Cc1ccc(CNC(=O)Cc2nc3nc(C)cc(C)n3n2)cc1 | -8 | -4 | nt | -1.5 | -25 | nt | nt | nt | nt | 0.5
COc1ccc(CNC(=O)c2cc(C(C)=O)c[nH]2)cc1 | 4 | 3 | -1.3 | 4.3 | -11 | -3% | 1 | 7 | -0.9 | 0.3
CCc1ccc(NC(=O)CCn2ccnc2C)cc1 | -19 | -9 | nt | 1.5 | -6 | 17% | nt | nt | nt | 0.3
CN(Cc1ccco1)C(=O)CN1C(=O)NC2(CCCC2)C1=O | nt | 0 | 1.1 | nt | nt | -1% | 19 | 22 | -0.2 | ?
CC(=O)Oc1ccc(C(=O)Nc2ccccc2NC(=O)c2ccc(OC(C)=O)cc2)cc1 | -7 | -7 | 3.0 | 0.2 | -13 | -8% | -2 | -2 | -0.2 | 0.2
COc1ccc(C(=O)NC(=S)N2CC(C)OC(C)C2)cc1 (stereo unspecified) | 1 | 0 | 2.3 | -1.8 | -16 | 2% | -1 | -1 | 1.0 | -0.4
CCN(CC(=O)NCc1ccc(F)cc1)CC(=O)Nc1ccccc1-c1ccccc1 | 33 | 3 | 1.4 | -0.7 | 12 | -13% | -33* | -24* | -2.7* | 0.0
COc1ccc(CC2(CO)CCN(C(C)COc3ccccc3)CC2)cc1 (stereo unspecified) | ? | -7 | -13 | 1.0 | 47 | 12% | 10 | 4 | 1.9 | -0.3
O=C(/C=C/Nc1ccc(F)cc1F)c1ccco1 | -24 | 5 | 5.3 | -0.7 | 2 | 0% | 17 | 19 | 1.9 | -8.7
CS(=O)(=O)c1ccc(-c2sc3ccccc3c2C#CCCO)cc1 | nt | 3 | -4.6 | nt | nt | nt | -12 | -17 | 17 | -0.1
CC(C)N(C(=O)Nc1ccc2nccnc2c1)C(C)C | 11 | -5 | nt | -9.9 | -12 | ? | nt | nt | nt | -0.1
CCOC(=O)c1ccccc1NC(=O)CSc1nc(N)cc(=O)[nH]1 | 9 | 1 | -11 | 2.7 | -2 | nt | 9 | -3 | -2.8 | 0.2
Cc1nn(CC(=O)Nc2ccc(Cl)cc2)c(=O)c2cc(-c3ccccc3)nn12 | -2 | 6 | -2.3 | -2.5 | -3 | nt | 23 | 26 | 4.5 | -0.2
CCCCNC(=O)[C@H](CSCc1ccccc1)N1Cc2ccccc2C1=O | 1 | -17 | -1.3 | -0.3 | 11 | -3% | -2 | 4 | -2.0 | 0.4
CCCc1cc(C(=O)Nc2cccc3ccccc23)n(C)n1 | 4 | -3 | -15 | -2.6 | -7 | nt | -30* | -22* | -12* | 0.7
Cc1cnc2cc(Cl)c(Cl)cc2n1 | -5 | 2 | nt | -1.4 | 0 | 24% | nt | nt | nt | 0.4
Cc1ccccc1OC/C(O)=C(\C#N)c1nc2ccccc2[nH]1 | 33 | 5 | nt | 4.2 | -10 | -4% | 15 | 7 | -1.4 | 0.1
O=C(Nc1cc2c(oc1=O)CCCC2=O)c1cccc(Cl)c1 | 1 | 0 | nt | -2.8 | -10 | 1% | nt | nt | nt | -0.6
Cn1nc(CC(=O)Nc2ccc3c(c2)OCCO3)c2ccccc2c1=O | -7 | 75* | nt | 1.4 | 25 | -5% | nt | nt | nt | -0.8
CCOC(=O)N1CCN(C(=O)C2CCCN(c3nc4ccc(OCC)cc4s3)C2)CC1 (stereo unspecified) | -6 | -3 | -6.0 | 1.6 | -8 | 1% | nt | nt | nt | 0.5
CN(C)CCNC(=O)c1ccc(CS(=O)(=O)c2c(Cl)cccc2Cl)o1 | 2 | -4 | 4.4 | 2.8 | 2 | 3% | 11 | 6 | 1.6 | -0.2

Single records, from the list above.
`O=C(Nc1cc2c(oc1=O)CCCC2=O)c1cccc(Cl)c1` across the screens: Calb FLC: 1; Beta cell apopt: 0; MLL AF4-AF9 inh: nt; RanGTP-Impb inh: -2.8; T cruzi inh: -10; Vif TR-FRET: 1%; rRNA inh HTS: nt; rRNA inh HTS OD600: nt; rRNA inh HTS RFP: nt; A1 inh: -0.6
`CCOC(=O)N1CCN(C(=O)C2CCCN(c3nc4ccc(OCC)cc4s3)C2)CC1` (stereo unspecified) across the screens: Calb FLC: -6; Beta cell apopt: -3; MLL AF4-AF9 inh: -6.0; RanGTP-Impb inh: 1.6; T cruzi inh: -8; Vif TR-FRET: 1%; rRNA inh HTS: nt; rRNA inh HTS OD600: nt; rRNA inh HTS RFP: nt; A1 inh: 0.5

Assay outcomes (PubChem)
